Assay outcomes from PubChem.
RecA intein inh: blocks M. tuberculosis RecA intein splicing | cell-free RecA intein splicing, fluorescence | inhibition, %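 (about 9 µM by stock and volumes)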 | actives 0.75% (n = 290,000) | AID 2221; in the data active = inhibition above about 30%;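 note: 0% = vehicle wells and 100% = reference inhibitor control wells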
Target sequence (P9WHJ3 whole entry, looked up): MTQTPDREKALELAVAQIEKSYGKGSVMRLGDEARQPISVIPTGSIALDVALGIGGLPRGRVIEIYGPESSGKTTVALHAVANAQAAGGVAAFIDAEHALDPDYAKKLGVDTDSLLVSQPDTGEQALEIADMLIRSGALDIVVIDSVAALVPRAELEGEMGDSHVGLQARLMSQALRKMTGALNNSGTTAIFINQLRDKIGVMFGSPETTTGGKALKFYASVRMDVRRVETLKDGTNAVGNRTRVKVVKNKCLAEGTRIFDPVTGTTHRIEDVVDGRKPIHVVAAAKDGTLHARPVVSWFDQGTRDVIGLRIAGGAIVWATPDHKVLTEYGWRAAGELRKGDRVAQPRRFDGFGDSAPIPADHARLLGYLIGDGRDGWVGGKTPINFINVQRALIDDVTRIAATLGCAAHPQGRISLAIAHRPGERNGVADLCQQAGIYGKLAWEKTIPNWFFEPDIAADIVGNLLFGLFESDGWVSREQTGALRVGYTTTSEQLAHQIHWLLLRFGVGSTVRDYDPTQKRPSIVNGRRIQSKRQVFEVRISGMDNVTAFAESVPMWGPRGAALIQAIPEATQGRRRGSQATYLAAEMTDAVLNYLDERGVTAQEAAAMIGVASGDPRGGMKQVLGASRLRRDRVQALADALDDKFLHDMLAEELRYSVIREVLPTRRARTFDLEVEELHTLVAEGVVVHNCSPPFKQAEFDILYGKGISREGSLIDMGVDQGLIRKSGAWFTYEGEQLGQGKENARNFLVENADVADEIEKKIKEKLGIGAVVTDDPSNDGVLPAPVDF
Arbovirus anti: arbovirus infection inhibition. arbovirus infection cell-based antiviral screen. inhibition, % at 10 µM. actives 0.37% (n = 200,000);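 active = inhibition from about 30%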;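 note: bluetongue infection of BSR cells; cell survival read as ATP light after 72 h; 0% = infected wells without compound and 100% = uninfected wells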
YopH inh: inhibitors of Yersinia enterocolitica YopH tyrosine phosphatase; inhibition, %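 (about 10 µM by stock and volumes)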; actives 0.16% (n = 140,000); AID 898; fluorescence Ex485/Em525;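 active = inhibition of 50% or more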;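 note: controls were vehicle for no effect and minimum signal wells for full effect; inactives centre near -20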
Mtb bLac sens: beta-lactam sensitization of Mtb H37Rv; M. tuberculosis H37Rv growth with meropenem, percent inhibition; hits of this screen are not shown here; inhibition, % at 25 µM; actives 0.27% (n = 330,000); AID 434955;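 active = about 74% or more and at least 40 points above the plate without the antibiotic, then above 30% in a dose series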;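 note: growth measured after seven days incubation then overnight dye step; 0% = bacteria only wells and 100% = bacteria with antibiotic; twin plates without the antibiotic show which effects depend on it; some results filed as inactive read as strong as hits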
Mtb H37Rv: M. tuberculosis H37Rv growth inhibitors, H37Rv strain (AID 1626) | actives 0.95% (n = 220,000) | one-dose inhibition, % at 10 µM; IC50 in µM for titrated hits | M. tuberculosis H37Rv growth inhibition; higher % means a stronger effect;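 active = confirmed in a dose series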;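 note: bacteria incubated seven days before Alamar blue readout; 0% = bacteria only wells and 100% = bacteria with antibiotic wells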
Arbovirus anti repeat: further read-out of Arbovirus anti, marked with its call; inhibition, %; measured here: 10K subset replicate screen; many hits read low in the repeat;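 first of two repeat runs on a subset; 0% = infected and 100% = uninfected wells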
Active calls of the source: *; . = not tested or not shown; & = joins results of further samples. Some of the compounds tested; the hit share may differ from the screen's.

SMILES | RecA intein inh | Arbovirus anti | YopH inh | Mtb bLac sens | Mtb H37Rv | others
O=C(CN1C(=O)NC2(CCCC2)C1=O)Nc1ccc(F)c(Cl)c1 | -2.3 | . | . | 4.5 | .
CC1(C)CC(=O)C/C(=N/NC(=O)c2ccc(-c3ccccc3)cc2)C1 | 1.8 | -0.2 | . | 4.2 | 2.9%
O=S(=O)(NCc1csc(-c2cccnc2)n1)c1ccc(Br)cc1 | 2.1 | . | . | 0.2 | .
O=C(CC1SC(=Nc2ccccc2)N(CCCO)C1=O)Nc1ccc(Cl)cc1 (centres undefined) | 7.6 | -16.3 | -28.9 | 26.9 | 28.3% | Arbovirus anti repeat=-13.9
COc1cc(C2C(C(=O)c3ccco3)=C(O)C(=O)N2c2cc(C)on2)cc(Br)c1O (centres undefined) | -0.8 | 7.2 | -58.3 | 6.1 | -8.1%
CCOC(=O)C(CCCP(=O)(c1ccccc1)c1ccccc1)(NC(C)=O)C(=O)OCC | . | . | . | -6.1 | -1.7%
C(=C\c1nc(-c2ccncc2)no1)/c1ccccc1 | -0.5 | -2.0 | . | 4.2 | -14.8%
COc1ccc(-n2nc3c(c2NC(=O)c2ccc(Br)o2)CS(=O)(=O)C3)cc1 | 11.1 | . | . | -2.2 | .
O=C(O)c1ccccc1C(=O)N1CCc2c([nH]c3ccccc23)C1C(F)(F)F (centres undefined) | -0.8 | . | . | -3.2 | -6.5%
Cc1cccc(NS(=O)(=O)c2c(C(=O)N3CCOCC3)c(C)n(C)c2C)c1C | -1.1 | . | . | -1.6 | .
COC(=O)c1sc(-c2ccc(Cl)cc2)cc1NC(=O)/C=C/C(=O)O | 70.4* | . | . | 85.0 | -1.1%
COc1ccc(NC(=O)Cc2nnc(N)s2)cc1 | -1.2 | -1.9 | . | -4.6 | -2.6%
Cc1cc(Br)ccc1OCCCCN1CCC(C)CC1 | 0.3 | -8.6 | -27.9 | -11.3 | 8.7%
COc1cc(Br)c(CC(=O)NC2CC2)cc1OC | -0.6 | . | . | -2.9 | .
COCCNc1nc(C)cc(-c2cc(C(=O)NCc3ccccc3)on2)n1 | 1.3 | . | . | -12.8 | 10.9%

Nothing new here: 10 of the compounds above.
SMILES | RecA intein inh | Arbovirus anti | YopH inh | Mtb bLac sens | Mtb H37Rv | others
CCOC(=O)C(CCCP(=O)(c1ccccc1)c1ccccc1)(NC(C)=O)C(=O)OCC | . | . | . | -6.1 | -1.7%
C(=C\c1nc(-c2ccncc2)no1)/c1ccccc1 | -0.5 | -2.0 | . | 4.2 | -14.8%
COc1ccc(-n2nc3c(c2NC(=O)c2ccc(Br)o2)CS(=O)(=O)C3)cc1 | 11.1 | . | . | -2.2 | .
O=C(O)c1ccccc1C(=O)N1CCc2c([nH]c3ccccc23)C1C(F)(F)F (centres undefined) | -0.8 | . | . | -3.2 | -6.5%
Cc1cccc(NS(=O)(=O)c2c(C(=O)N3CCOCC3)c(C)n(C)c2C)c1C | -1.1 | . | . | -1.6 | .
COC(=O)c1sc(-c2ccc(Cl)cc2)cc1NC(=O)/C=C/C(=O)O | 70.4* | . | . | 85.0 | -1.1%
COc1ccc(NC(=O)Cc2nnc(N)s2)cc1 | -1.2 | -1.9 | . | -4.6 | -2.6%
Cc1cc(Br)ccc1OCCCCN1CCC(C)CC1 | 0.3 | -8.6 | -27.9 | -11.3 | 8.7%
COc1cc(Br)c(CC(=O)NC2CC2)cc1OC | -0.6 | . | . | -2.9 | .
COCCNc1nc(C)cc(-c2cc(C(=O)NCc3ccccc3)on2)n1 | 1.3 | . | . | -12.8 | 10.9%

(list continues)
SMILES | RecA intein inh | Arbovirus anti | YopH inh | Mtb bLac sens | Mtb H37Rv | others
COCCCn1c(-c2ccc(OC)cc2)nc2nc3ccccc3nc21 | -3.9 | 6.5 | -3.3 | . | 3.5%
COc1ccc2c(c1)c1nc3ccccc3nc1n2CC(=O)OC(C)C | -17.6 | -12.0 | -24.5 | 7.1 | -13.7%
CCCC(=O)N(Cc1cc2ccccc2[nH]c1=O)c1ccccc1OC | 4.5 | 1.5 | -27.7 | 5.1 | -3.8%
COc1cc2c(cc1OC)CN(C(C)C(=O)N1CCc3ccccc31)CC2 (centres undefined) | -0.8 | -19.9 | -9.4 | -7.5 | 4.2%
CCn1ncc(C(=O)Nc2ccc(S(=O)(=O)N3CCCC3)cc2)c1C | 0.9 | -2.4 | -47.1 | -0.3 | 2.8%
COc1ccc(NC(=O)c2nc3nccc(C)n3n2)cn1 | 0.2 | 8.0 | -31.0 | -9.5 | -11.9%
COc1ccc(N2CCN(C(c3nnnn3C3CCCC3)C(C)C)CC2)cc1 (centres undefined) | 0.1 | 3.1 | . | 2.9 | -5.5%
CCN(c1ccccc1)S(=O)(=O)c1ccc(Cl)c(NC(=O)CSc2ncn[nH]2)c1 | 4.4 | -6.5 | -16.4 | -2.7 | 3.8%
COc1ccccc1C(=O)C1CCCN(C(=O)c2cnn(C(C)C)c2)C1 (centres undefined) | -7.3 | . | . | -5.0 | .
COc1ccc(CNc2cccc(C)n2)c(O)c1 | 1.0 | . | . | 0.3 | .
CS(=O)(=O)Nc1ccc(C(=O)N2CCc3ccccc3C2)cc1 | -0.3 | 8.6 | . | -9.6 | -1.3%
CCCCn1c(N)c(N(CCC(C)C)C(=O)c2[nH]c(C)c(C(=O)OCC)c2C)c(=O)[nH]c1=O | 0.4 | . | . | -12.1 | .
O=C(NCCc1ccccc1F)C1CC(=O)N(c2ccccc2)C1 (centres undefined) | -2.3 | . | . | -9.0 | .
Cn1c(SCC#N)nnc1-c1cnccn1 | -1.3 | -2.5 | -3.1 | -1.7 | -8.4%
Cc1c(C(=O)N(CCc2ccccc2)Cc2ccccc2)cccc1[N+](=O)[O-] | 11.7 | . | . | -1.8 | .
O=C(c1ccc2c(c1)OCO2)N1CCNc2ccccc2C1 | . | 11.2 | 27.2 | 1.6 | -16.6%
COc1ccc(OC)c(NS(=O)(=O)c2ccc(Cl)nc2)c1 | 0.3 | 3.6 | -7.3 | -6.7 | 0.9%
O=C(CSc1ncc(S(=O)(=O)c2ccccc2)c(=O)[nH]1)Nc1ccccc1Cl | -1.3 | . | . | 2.8 | -6.3%
COc1ccc(NC(=O)CN(C)CCOc2ccc(Cl)cc2)cc1OC | 2.8 | . | . | -4.3 | .
CN(CC(=O)Nc1ccccc1Cl)CC(=O)Nc1sc2c(c1C(N)=O)CCC2 | -1.1 | . | . | 0.6 | .
NS(=O)(=O)c1ccc(CCNC(=O)CNC(=O)c2ccc(F)cc2)cc1 | -3.2 | . | . | -1.5 | .
COc1ccc(S(=O)(=O)N2CCN(C)CC2)cc1C(=O)N1CCCCC1 | 0.3 | . | . | -6.4 | .
CCOc1ccc(/C=C2/SC(=S)N(C(C(=O)O)c3ccccc3)C2=O)cc1OCC (centres undefined) | . | 17.1 | . | . | 8.2%
O=C(Nc1ccc(S(=O)(=O)Nc2cnc3ccccc3n2)cc1)c1ccc(Cl)c([N+](=O)[O-])c1 | -0.1 | . | . | 0.2 | .
CC(Oc1cccc(Cl)c1)C(=O)Nc1ccccc1N1CCCC1 (centres undefined) | 3.5 | . | . | 77.0 | .
CC(C)NC(=O)CSc1c2c(nc3ccccc13)CCCC2 | 24.8 | -1.6 | . | 36.0 | -4.5%
COc1ccccc1C(=O)NN1C(=O)C2C3C=CC(O3)C2C1=O (centres undefined) | 0.0 | 9.2 | -30.8 | -4.7 | -21.8%
COc1ccc(C(c2nnnn2C2CCCCC2)N2CCN(C)CC2)c(OC)c1 (centres undefined) | 1.0 | 5.5 | . | -0.2 | 0.7%
COc1ccccc1C1c2c(C)nn(-c3ccccc3)c2NC(=O)C1NC(=O)c1ccccc1 (centres undefined) | -0.5 | -6.4 | -22.9 | -0.5 | -2.8%
N#Cc1c(NC(=O)C2CCCO2)sc2c1CCCCC2 (centres undefined) | -0.4 | 6.2 | . | -0.3 | -4.0%
Cc1cc(C)nc(N(C#N)S(=O)(=O)c2ccccc2)n1 | -0.4 | 6.7 | -7.0 | 19.4 | 5.7%
CCn1c(=O)c(C(=O)Nc2ccc(C)cc2C)c(O)c2ccccc21 | 0.0 | . | . | -6.8 | .
CCc1cccc(C)c1NC(=O)COC(=O)c1c2c(nc3ccccc13)/C(=C\c1cccs1)CCC2 | -1.6 | -24.0 | -31.5 | 0.3 | 1.9%
Cc1cccc(/C=C(\C#N)C(=O)Nc2ccccn2)c1 | -17.1 | . | . | -4.6 | .
CCCCC(=O)NC(c1ccccc1Cl)c1ccc2cccnc2c1O (centres undefined) | 0.5 | . | . | 1.0 | .
CCOC(=O)c1c(CN2CCCCC2)oc2ccc(OC)cc12 | -0.4&-3.9 | 5.3&10.3 | -6.2&-18.6 | 4.1&-2.7 | -7.1%&3.1%
COC(=O)C1=C(C)N(c2ccc(C)c(C)c2)/C(=C/c2cccs2)C1=O | -0.1 | -2.9 | -37.4 | -6.5 | 2.6%
COc1ccc(C2CC(C(F)(F)F)n3nc(C(=O)NCc4c(C)nn(C)c4C)c(Cl)c3N2)cc1 (centres undefined) | -1.0 | 10.3 | -13.2 | 3.8 | 3.8%
CCNC(=O)NC(=O)C(C)OC(=O)c1ccc(-n2nc(SC)sc2=S)cc1 (centres undefined) | . | 8.5 | -21.2 | 93.9 | 13.3%
CC1CC(C)CN(C(=O)Cn2c(-c3nonc3N)nc3ccccc32)C1 (centres undefined) | -0.9 | -0.6 | -5.1 | -10.2 | -10.6%
CCOC(=O)C1(CCCc2ccccc2)CCN(C(=O)c2cnn(CC)c2)CC1 | 1.7 | -5.7 | . | 5.7 | -4.8%
CC(C)C(=O)Nc1nc2cc3c(cc2s1)OCO3 | 0.1 | 13.4 | -56.0 | -10.2 | 4.1%
CC1CCCN(CC(O)COCc2ccccc2)C1 (centres undefined) | -6.2 | 1.0 | . | 6.4 | -2.8%
Cc1ccc(NC(=O)[C@H](CC(C)C)NC(=O)[C@@H]2Cc3ccccc3CN2)cc1 | 3.2 | . | . | 1.0 | .
CC(C)(C)NC(=O)CSC(=Nc1ccccc1F)NC#N | 4.0 | -0.6 | 21.9 | -17.7 | -7.8%
O=C(C1CCCN(S(=O)(=O)c2ccc(Cl)cc2)C1)N(Cc1cccs1)C1CC1 (centres undefined) | 6.1 | 7.4 | -29.0 | -7.8 | -3.9%
O=C(Cn1c(=O)oc2ccccc21)N1CCOCC1 | 0.1 | 0.0 | . | -7.1 | 4.8%
Cc1ccc(NS(=O)(=O)c2cc3c4c(cccc4c2)C(=O)NC3=O)cc1C | 1.7 | . | . | -1.3 | -4.8%
Cc1oc2cc3oc(=O)c(CCC(=O)NCCCC(=O)O)c(C)c3cc2c1C | -4.7 | . | . | 2.1 | .
O=C(NCc1cccnc1)c1ccccn1 | 8.0 | 6.9 | -25.2 | 3.6 | -6.4%
CN1CCN(NC(=O)CN(C)S(=O)(=O)c2cc(Cl)ccc2Cl)CC1 | 0.8 | 1.3 | . | -8.5 | 0.2%
Cc1ccc2nc(C3CCCN(C(=S)Nc4cccc(C)c4C)C3)[nH]c2c1 (centres undefined) | 4.8 | -12.2 | -31.1 | 7.5 | 3.1%
CCc1cccc(C)c1NC(=O)c1ccc(CN2CCc3ccccc3C2)cc1 | 5.1 | -3.6 | -19.1 | 6.2 | 3.6%
CN(C(=O)CO/N=C/c1ccc(Cl)cc1)c1ccccc1 | 5.4 | -2.6 | . | -1.9 | 7.5%
N#CCSc1nnc(COc2cccc3ccccc23)n1-c1ccccc1 | 11.6 | -4.0 | -49.2 | 6.7 | -2.9%
CC(C)NC(=O)c1ccc(S(=O)(=O)N(C)C)cc1 | -4.2 | 1.1 | . | 0.6 | 0.3%
CC(C)NC(=O)NC(=O)CSc1nnc(COc2ccccc2Cl)o1 | 0.6 | 0.1 | -44.6 | 54.3 | 8.8%
Cn1c(-c2ccc(N)cc2)nc2ccccc21 | . | -2.1 | -28.5 | -7.0 | -13.4%
CCC(C)(C)NC(=O)CN(C(=O)c1snc(C(N)=O)c1N)c1ccc2c(c1)OCCO2 | 2.3 | 2.2 | -32.7 | 5.6 | 3.9%
CCOc1cccc(C(=O)NC(=S)Nc2ccccc2)c1 | 2.3 | -2.0 | -23.3 | 11.7 | 12.0%
The results go on.
SMILES | RecA intein inh | Arbovirus anti | YopH inh | Mtb bLac sens | Mtb H37Rv | others
CC(=O)c1ccc(S(=O)(=O)N2CCCC(N(C)CCc3ccccc3)C2)cc1 (centres undefined) | 0.3 | . | . | 2.2 | .
CCOC(=O)Cc1c(C)c2c(C)[nH]nc2oc1=O | 38.6* | 3.0 | -44.0 | -0.3 | -1.9%
CN(C(=O)c1ccccc1)c1nccnc1C#N | 1.5 | . | . | -9.9 | .
CN(C)c1nnnn1-c1ccccc1Oc1ncc(C(F)(F)F)cc1Cl | -1.4 | 13.2 | . | 4.9 | 18.8%
O=C(CSc1nnc(Cc2ccccc2)n1-c1cccc(Cl)c1)NNC(=O)Cc1ccccc1 | 1.3 | -4.5 | -15.1 | -5.2 | 1.3%
